Screening data as filed in PubChem.
NPYLR7 agonist: agonists of mosquito NPYLR7 receptor, primary screen, cell-based, Aedes aegypti, calcium fluorescence, mosquito biting behavior; 270,000 tested, 0.15% active; HEK293T NPYLR7/Galpha15, GCaMP6s calcium fluorescence; activation, % at 10 µM; AID 1259423, 2018; Aedes aegypti neuropeptide Y-like receptor 7 (NPYLR7); in the data active means activation above about 40%;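 further: 0% = vehicle and 100% = reference agonist at the receptor; some compounds past the cut are filed as inactive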
NPYLR7 agonist max-min: recorded beside NPYLR7 agonist, whose call it bears; activation, %; measured here: Max-Min RFU normalised activation; some inactives read as strong as hits;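 span of the calcium signal over five minutes; 0% = vehicle and 100% = native peptide agonist; compound fluorescence can raise it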
Numbers without * were called inactive; & = joins results of further samples. This is a subset (hit frequency here may not be typical).

How did CCCn1ncc(C(=O)NC2CCCN(c3ncccn3)C2)c1C (centres undefined) do in these assays?
NPYLR7 agonist: 6; NPYLR7 agonist max-min: 2

What do the screens show for `CCCc1nc(N2CCCN(C(=O)Nc3ccc([N+](=O)[O-])cc3)CC2)c2c(-c3ccccc3)noc2n1`?
NPYLR7 agonist: 16; NPYLR7 agonist max-min: 14

Results for CCN(CC)C(=O)Oc1ccc2c(ccn2Cc2cc(C)cc(C)c2)c1NC(=O)C1COc2ccccc2O1 (centres undefined) ?
NPYLR7 agonist: 2; NPYLR7 agonist max-min: -3

How did C=CCNC(=O)c1cc(-c2cc(C(=O)NCC=C)c3ccccc3n2)nc2ccccc12 do in these assays?
NPYLR7 agonist: -1; NPYLR7 agonist max-min: -2

Results for CCc1ncc(CN2CCC3(CCCN(C(=O)c4cccc(C)c4)C3)C2)cn1 (centres undefined) ?
NPYLR7 agonist: -1; NPYLR7 agonist max-min: 30

Results for COc1cccc2cc(C(=O)NCCC3CCCCN3S(=O)(=O)c3ccc(C)cc3)oc12 (centres undefined) ?
NPYLR7 agonist: 2; NPYLR7 agonist max-min: 0

Results for Cc1ccc(-c2nc3scc(CCNS(=O)(=O)c4ccc(F)c(C)c4)n3n2)cc1 ?
NPYLR7 agonist: 8; NPYLR7 agonist max-min: 5

What do the screens show for `O=C(N=Nc1c(O)n(Cc2ccccc2)c2ccccc12)c1ccc2ccccc2n1`?
NPYLR7 agonist: 1; NPYLR7 agonist max-min: -4

Results for CCC(CC)NC1CC(=O)N(CC)C1 (centres undefined) ?
NPYLR7 agonist: 9; NPYLR7 agonist max-min: -6

How did CCCC(=O)N1CCCCC1C(=O)NC(C)CCC1CCCO1 (centres undefined) do in these assays?
NPYLR7 agonist: 5; NPYLR7 agonist max-min: 3

What do the screens show for `CN(Cc1ccc(-n2cccn2)cc1)C(=O)C1CCC(=O)N(CCc2ccc(Cl)cc2)C1` (centres undefined)?
NPYLR7 agonist: 5; NPYLR7 agonist max-min: 1

Results for CC(Oc1ccccc1)C(=O)N1CCC(CCc2ccc(-c3ccccc3)cc2)CC1 (centres undefined) ?
NPYLR7 agonist: 2; NPYLR7 agonist max-min: 5

How did Clc1cc2c(c(CSc3nnc(-c4ccccc4)c4ccccc34)c1)OCOC2 do in these assays?
NPYLR7 agonist: 0; NPYLR7 agonist max-min: 3

Results for CC(OC(=O)CCN1CCCS1(=O)=O)c1ccc2c(c1)Nc1ccccc1S2 (centres undefined) ?
NPYLR7 agonist: 1&7; NPYLR7 agonist max-min: -1&3

What do the screens show for `Cc1cc(=O)[nH]c(-n2ncc(C(=O)Nc3ccc(F)cc3F)c2C)n1`?
NPYLR7 agonist: 1; NPYLR7 agonist max-min: 0

How did CC(C)C1CN(C(=O)Cn2ccccc2=O)CCCN1Cc1ccc(F)cc1 (centres undefined) do in these assays?
NPYLR7 agonist: 0; NPYLR7 agonist max-min: -6

Results for COC(=O)c1ccc(C(=O)OC)c(NCc2cc(=O)oc3cc(C)c(O)cc23)c1 ?
NPYLR7 agonist: 3; NPYLR7 agonist max-min: -1

How did COc1cc([N+](=O)[O-])cc(/C=C2/SC(=S)N(CC(=O)O)C2=O)c1O do in these assays?
NPYLR7 agonist: -6; NPYLR7 agonist max-min: -8

How did Cc1nnc(NCC(C)(C)N2CC(C)OC(C)C2)c(C#N)c1C (centres undefined) do in these assays?
NPYLR7 agonist: 4; NPYLR7 agonist max-min: 2

How did Cc1noc(C)c1CCC(=O)O do in these assays?
NPYLR7 agonist: 13; NPYLR7 agonist max-min: 18

Grouped by structure: those above with an aryl methoxy group (2)
Results for COc1cccc2cc(C(=O)NCCC3CCCCN3S(=O)(=O)c3ccc(C)cc3)oc12 (centres undefined) ?
NPYLR7 agonist: 2; NPYLR7 agonist max-min: 0

How did COc1cc([N+](=O)[O-])cc(/C=C2/SC(=S)N(CC(=O)O)C2=O)c1O do in these assays?
NPYLR7 agonist: -6; NPYLR7 agonist max-min: -8

Reprinted at random: 5 records from the list, in no set order.
How did CC(C)C1CN(C(=O)Cn2ccccc2=O)CCCN1Cc1ccc(F)cc1 (centres undefined) do in these assays?
NPYLR7 agonist: 0; NPYLR7 agonist max-min: -6

Results for CC(OC(=O)CCN1CCCS1(=O)=O)c1ccc2c(c1)Nc1ccccc1S2 (centres undefined) ?
NPYLR7 agonist: 1&7; NPYLR7 agonist max-min: -1&3

What do the screens show for `CN(Cc1ccc(-n2cccn2)cc1)C(=O)C1CCC(=O)N(CCc2ccc(Cl)cc2)C1` (centres undefined)?
NPYLR7 agonist: 5; NPYLR7 agonist max-min: 1

Results for COC(=O)c1ccc(C(=O)OC)c(NCc2cc(=O)oc3cc(C)c(O)cc23)c1 ?
NPYLR7 agonist: 3; NPYLR7 agonist max-min: -1

How did Cc1noc(C)c1CCC(=O)O do in these assays?
NPYLR7 agonist: 13; NPYLR7 agonist max-min: 18

New compounds follow.
What do the screens show for `O=C(c1cc([N+](=O)[O-])ccc1Cl)N1CCN(c2ccc(F)cc2)CC1`?
NPYLR7 agonist: 0; NPYLR7 agonist max-min: -2

Results for Nc1nc(COC(=O)CC23CC4CC(CC(Br)(C4)C2)C3)nc2ccccc12 ?
NPYLR7 agonist: 0; NPYLR7 agonist max-min: 0

Results for CCC1CN(C(=O)CCN2CCN(c3ccccn3)CC2)CCS1 (centres undefined) ?
NPYLR7 agonist: 3; NPYLR7 agonist max-min: 2

What do the screens show for `CCCNC(=O)C1(C)CCCN(Cc2ccc(S(C)(=O)=O)cc2)C1` (centres undefined)?
NPYLR7 agonist: 9; NPYLR7 agonist max-min: 2

How did Sc1c(Cl)cccc1Cl do in these assays?
NPYLR7 agonist: 6; NPYLR7 agonist max-min: 9

What do the screens show for `COC(=O)NNc1ncnc2c1nnn2C`?
NPYLR7 agonist: 13; NPYLR7 agonist max-min: 7

Results for CN(C)CC(C)(C)CNC(=O)c1cc(F)cc(F)c1 ?
NPYLR7 agonist: 1; NPYLR7 agonist max-min: -1

How did CCC1(C)NC(=O)N(/N=C2\CCCOc3ccc(F)cc32)C1=O (centres undefined) do in these assays?
NPYLR7 agonist: 3; NPYLR7 agonist max-min: 2

What do the screens show for `Cc1[nH]c2ccccc2c1CC(=O)N(Cc1nccn1C)C1CC1`?
NPYLR7 agonist: -5; NPYLR7 agonist max-min: -5

How did CN(Cc1ccccc1)C(=O)C[C@@H]1O[C@H](CNC(=O)Nc2ccccc2)[C@@H](O)[C@H]1O do in these assays?
NPYLR7 agonist: -4; NPYLR7 agonist max-min: -13

Structures above with a Cl atom, in the order listed:
What do the screens show for `CN(Cc1ccc(-n2cccn2)cc1)C(=O)C1CCC(=O)N(CCc2ccc(Cl)cc2)C1` (centres undefined)?
NPYLR7 agonist: 5; NPYLR7 agonist max-min: 1

How did Clc1cc2c(c(CSc3nnc(-c4ccccc4)c4ccccc34)c1)OCOC2 do in these assays?
NPYLR7 agonist: 0; NPYLR7 agonist max-min: 3

What do the screens show for `O=C(c1cc([N+](=O)[O-])ccc1Cl)N1CCN(c2ccc(F)cc2)CC1`?
NPYLR7 agonist: 0; NPYLR7 agonist max-min: -2

How did Sc1c(Cl)cccc1Cl do in these assays?
NPYLR7 agonist: 6; NPYLR7 agonist max-min: 9

(further entries)
How did CC(C)C(N)c1csc(Nc2ccccn2)n1 (centres undefined) do in these assays?
NPYLR7 agonist: 1; NPYLR7 agonist max-min: -1

What do the screens show for `NC(=O)C1CCN(C(=O)OCC(F)(F)F)CC1`?
NPYLR7 agonist: 10; NPYLR7 agonist max-min: 17

Results for Cc1ccc(S(=O)(=O)Nc2cc3c(cc2Cl)NC(=O)C3)cc1 ?
NPYLR7 agonist: 1&9; NPYLR7 agonist max-min: 0&6

Results for Cc1ccoc1C(=O)N1CCC(Cc2n[nH]c(=O)n2-c2ccccc2)CC1 ?
NPYLR7 agonist: 3; NPYLR7 agonist max-min: 2

How did CC(C)(C)C1CC2CC(=O)CC(C1)C2=O (centres undefined) do in these assays?
NPYLR7 agonist: 10; NPYLR7 agonist max-min: 12

What do the screens show for `CCc1c(C)nn(CC(=O)N2CCC3(CCCNC3)C2)c1C` (centres undefined)?
NPYLR7 agonist: -3; NPYLR7 agonist max-min: -5

How did O=S(=O)(NC1(c2ccccc2)CCOCC1)c1ccccc1F do in these assays?
NPYLR7 agonist: 10; NPYLR7 agonist max-min: 4

What do the screens show for `CCSc1nc(CC(=O)NC[C@H]2CCc3ccccc3O2)cs1`?
NPYLR7 agonist: 10; NPYLR7 agonist max-min: 2

How did CCCCc1ccc(C(=O)N(CCCC)CC(=O)N2c3ccccc3-n3cccc3C2c2ccccc2)cc1 (centres undefined) do in these assays?
NPYLR7 agonist: -2; NPYLR7 agonist max-min: 3

Results for Fc1ccccc1N1CCN(Cn2cnc3ccccc32)CC1 ?
NPYLR7 agonist: -5; NPYLR7 agonist max-min: -11

How did CC(Cn1cccn1)OC(=O)c1cc(C(C)C)nn1C (centres undefined) do in these assays?
NPYLR7 agonist: 3; NPYLR7 agonist max-min: 1

What do the screens show for `Cc1cc(NC(=O)COc2ncnc3sccc23)no1`?
NPYLR7 agonist: 1; NPYLR7 agonist max-min: -1

How did CCCc1cc(CNC(=O)Cc2cc(C)no2)on1 do in these assays?
NPYLR7 agonist: 2; NPYLR7 agonist max-min: 1

What do the screens show for `CC(=O)Nc1ccc(Cl)cc1NCc1nccn1Cc1ccccc1`?
NPYLR7 agonist: 0; NPYLR7 agonist max-min: -1

Results for CCc1nnc(CN2CCCC3(CCCCCC3)C2)o1 ?
NPYLR7 agonist: -1; NPYLR7 agonist max-min: -4

What do the screens show for `O=C(CN1CCN(C(=O)c2sc3cc(F)ccc3c2Cl)CC1)Nc1ccc(F)cc1`?
NPYLR7 agonist: 5; NPYLR7 agonist max-min: 4

How did COc1cccc(C(CC(=O)N2CC3(C)CC2CC(C)(C)C3)c2c[nH]c3ccccc23)c1OC (centres undefined) do in these assays?
NPYLR7 agonist: 22; NPYLR7 agonist max-min: 24

How did CCCC(CCC)C(=O)NCCn1ncc2c(N3CCCC3)nc(SC(C)C)nc21 do in these assays?
NPYLR7 agonist: 1; NPYLR7 agonist max-min: 0

Results for O=C(NCc1ccc(-c2ncc(-c3ccc(F)cc3)[nH]2)cc1)c1cc(Cl)cc(Cl)c1 ?
NPYLR7 agonist: 22; NPYLR7 agonist max-min: 32

How did CCOc1cc(S(=O)(=O)N2CCN(c3cccc(C)c3C)CC2)ccc1F do in these assays?
NPYLR7 agonist: 1; NPYLR7 agonist max-min: 8

How did Cc1nn(C)cc1-c1ccnc(N2CCCN(c3ccc(F)cc3)CC2)n1 do in these assays?
NPYLR7 agonist: 0; NPYLR7 agonist max-min: 8

What do the screens show for `COc1ccccc1CCNC(=O)CN1CCCC1C(F)(F)F` (centres undefined)?
NPYLR7 agonist: 24; NPYLR7 agonist max-min: 9

Results for Cc1ccc(Nc2nc(N3CCN(c4cccc(Cl)c4)CC3)nc3nccnc23)c(C)c1 ?
NPYLR7 agonist: 2; NPYLR7 agonist max-min: 0

Results for C=Cc1ccc(Cn2c(C)c(C(=O)NCc3cccc4ccccc34)sc2=O)cc1 ?
NPYLR7 agonist: -8; NPYLR7 agonist max-min: -5

What do the screens show for `COc1cc(C=C2SC(=S)NC2=O)ccc1OC(C)C`?
NPYLR7 agonist: 4; NPYLR7 agonist max-min: 2

What do the screens show for `CC(C)c1nnc(SCC(=O)Nc2ccc(N3CCCCCC3)cc2)o1`?
NPYLR7 agonist: 4; NPYLR7 agonist max-min: 0

What do the screens show for `O=C(NCCc1ccccc1F)N1CCN(S(=O)(=O)c2ccc(F)cc2)CC1`?
NPYLR7 agonist: 1; NPYLR7 agonist max-min: -1

Results for CSc1nnc2c(n1)OC(c1cccs1)Nc1ccccc1-2 (centres undefined) ?
NPYLR7 agonist: 9; NPYLR7 agonist max-min: 5

Results for CCCCC(O)CN(CCOC)Cc1c(CC)nn(-c2ccccc2)c1Oc1cccc(OC)c1 (centres undefined) ?
NPYLR7 agonist: 8; NPYLR7 agonist max-min: 8

Results for CCN(Cc1ccc(C(=O)Nc2ccnn2C)cc1)Cc1noc(C)n1 ?
NPYLR7 agonist: 5; NPYLR7 agonist max-min: -9

What do the screens show for `CC1CN(C)CCN1CC(O)c1cc(Cl)ccc1Cl` (centres undefined)?
NPYLR7 agonist: 11; NPYLR7 agonist max-min: 9

How did C#CCN(Cc1cccnc1)C(=O)Nc1ccn(CCCC(=O)N(C)C)n1 do in these assays?
NPYLR7 agonist: 0; NPYLR7 agonist max-min: 1

Results for CCOC(=O)C(C)n1nc(C)n2c(cc3sccc32)c1=O (centres undefined) ?
NPYLR7 agonist: -11; NPYLR7 agonist max-min: -9

What do the screens show for `Cc1ccc(C2=NN(C(=O)Cn3cnc4sc5c(c4c3=O)CCC5)C(c3ccco3)C2)o1` (centres undefined)?
NPYLR7 agonist: 6; NPYLR7 agonist max-min: 7

Results for Cc1cc(O)c(C2OC(=O)c3ccccc32)c(=O)n1CCO (centres undefined) ?
NPYLR7 agonist: -5; NPYLR7 agonist max-min: -7

How did Cc1c(C)c(C(=O)NCc2ccc3c(c2)OCO3)n(Cc2ccc(F)cc2F)c1C do in these assays?
NPYLR7 agonist: 10; NPYLR7 agonist max-min: 9

What do the screens show for `O=C(NNC(=S)Nc1ccccc1)c1cccnc1`?
NPYLR7 agonist: 5; NPYLR7 agonist max-min: 3

What do the screens show for `O=C(CCCOc1ccccc1)N1CCC(c2ccccc2)CC1`?
NPYLR7 agonist: 12; NPYLR7 agonist max-min: 3

How did CCOC(=O)c1nn(-c2ccc(F)cc2)c(=O)cc1OS(=O)(=O)c1ccc(F)cc1F do in these assays?
NPYLR7 agonist: 8; NPYLR7 agonist max-min: 9

What do the screens show for `CCc1noc(C)c1C(=O)Nc1cc(C(=O)O)ccc1Cl`?
NPYLR7 agonist: -14; NPYLR7 agonist max-min: -18
